Screening results (PubChem BioAssay)
GLA inh pH 4.5 = qHTS Assay for Inhibitors of Human alpha-Galactosidase at pH 4.5; 230,000 tested, under 10 active; Alpha-galactosidase A (Homo sapiens), P06280; purified enzyme, 4-MU-alpha-Gal fluorescence, pH 4.5; activity change, negative = inhibition, % at 105 µM; AID 1467, 2008; inconclusive = small, poorly fitted or top-dose-only inhibition, or a rising curve; inactive = flat fitted curve, though single readings scatter; no compound was filed as active;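 also: 0% = full activity with enzyme and -100% = basal without enzyme; dose as in the result columns while the protocol names 77 µM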
Rango complex inh = qHTS Assay for Inhibitors of Rango (Ran-regulated importin-beta cargo) - Importin beta complex formation. AID 540263, 2011. 340,000 tested, 0.031% active. Importin subunit beta-1 (Homo sapiens), Q14974. Rango CFP/YFP FRET sensor + importin beta, 45 min. Potency, µM (doses to about 92.2 µM), inactives show top-dose inhibition of complex formation; active = rising FRET ratio curve, often small or poorly fitted; inconclusive = mostly compound fluorescence or quenching in the first reads; inactive = flat curves in all reads;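 also: potency is read from the fitted curve at half-maximal effect; 0% = DMSO wells and 100% = buffer wells lacking importin beta; nearly all actives have a fitted effect of over 15% in size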
Target sequence (Q14974 whole entry, looked up): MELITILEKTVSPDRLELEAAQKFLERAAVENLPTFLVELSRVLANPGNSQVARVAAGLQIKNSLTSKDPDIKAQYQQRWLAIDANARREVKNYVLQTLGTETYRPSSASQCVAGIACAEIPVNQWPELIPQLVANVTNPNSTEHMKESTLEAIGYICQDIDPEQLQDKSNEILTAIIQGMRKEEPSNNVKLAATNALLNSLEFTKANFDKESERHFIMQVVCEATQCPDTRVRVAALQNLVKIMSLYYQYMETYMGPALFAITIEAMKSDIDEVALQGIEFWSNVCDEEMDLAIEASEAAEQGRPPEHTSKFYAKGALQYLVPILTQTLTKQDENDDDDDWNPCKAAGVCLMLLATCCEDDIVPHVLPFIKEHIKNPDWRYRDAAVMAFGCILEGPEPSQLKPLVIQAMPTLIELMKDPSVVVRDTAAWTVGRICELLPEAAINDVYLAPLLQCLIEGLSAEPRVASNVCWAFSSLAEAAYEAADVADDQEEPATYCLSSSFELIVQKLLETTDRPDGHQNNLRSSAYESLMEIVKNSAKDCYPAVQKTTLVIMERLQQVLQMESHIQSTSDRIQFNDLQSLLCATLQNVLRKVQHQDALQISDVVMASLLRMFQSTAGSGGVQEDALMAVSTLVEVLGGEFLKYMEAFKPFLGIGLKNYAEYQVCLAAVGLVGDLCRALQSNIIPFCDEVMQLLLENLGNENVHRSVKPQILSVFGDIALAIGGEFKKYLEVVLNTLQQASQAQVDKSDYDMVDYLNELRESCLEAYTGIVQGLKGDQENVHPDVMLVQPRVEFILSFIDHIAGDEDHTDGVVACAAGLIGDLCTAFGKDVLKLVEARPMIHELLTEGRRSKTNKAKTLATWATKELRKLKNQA
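Inhibition scored from the CFP 486 nm/YFP 530 nm FRET ratio 45 min after adding 0.125 microM importin beta to 50 nM Rango biosensor preincubated 5 min with compound (room temperature, PBS with DTT, Tween-20, BSA). No-importin wells as positive control.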
miR-21 reporter = qHTS Assay for Modulators of miRNAs and/orActivators of miR-21; AID 2288, 2010; 340,000 tested, under 10 active; HeLa miR-21 FLuc reporter, luciferase, 48 h; Potency, µM (titrated, usually from 38.3 µM), without a hit: top-dose reporter change, positive = more light; active = well fitted rising curve with a large enough effect; inconclusive = small, poorly fitted or top-dose-only effect; inactive = no such curve, though single readings can be large or run the other way;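 also: % of control where 0% means no effect; miR-21 action dims this reporter so a rising signal means less miR-21 action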
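Luminescence from a firefly luciferase reporter carrying a miR-21 binding site downstream, stably expressed under a CMV promoter in HeLa cells that make miR-21 endogenously, reports miRNA modulation after 48 h compound exposure up to approximately 40uM final.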
Rango dissoc inh = qHTS Assay for Inhibitors of RanGTP induced Rango (Ran-regulated importin-beta cargo) - Importin beta complex dissociation | Biochemical FRET Rango-importin beta, RanGTP-induced dissociation | Potency, µM (highest dose often 46.1 µM), without a hit: top-dose activity change, negative = inhibition | 340,000 tested, 0.071% active | AID 540253, 2011; active means falling FRET ratio curve, often poorly fitted, with flat reads before Ran was added; inconclusive means other falling curves, or compound fluorescence or quenching; inactive means flat or rising ratio curve;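 also: potency is read from the fitted curve at half-maximal effect; % of control where 0% means no effect; nearly all actives have a fitted effect of over 45% in size; -100% = wells without RanGTP and RCC1; the record marks most hits as doubtful in a second field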
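Rango/importin beta premix (0.1/0.25 uM final), PBS + 1 mM DTT + 0.02% Tween-20 + 0.1% BSA; cpd 5 min RT; FRET pre-read; + RanGTP-RCC1 (0.6 uM Ran, 2 mM GTP, 0.2 uM RCC1); 45 min RT; FRET post-read, ex 430, em 486/530 nm.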
Active calls of the source: *; ? = inconclusive; · = no result given; [ ] = remark or other dose. Some of the compounds tested, so the mix of outcomes need not match the whole.

SMILES	GLA inh pH 4.5	Rango complex inh	miR-21 reporter	Rango dissoc inh
CCc1cccc(C)c1NC(=O)CCNC(=O)c1cccc(C)c1	·	?	1%	11%
CCn1c(CNC(=O)c2cccc(C)c2)nc2ccccc21	-12	-0.5%	0%	20%
COc1ccc(Br)cc1C1Nc2cccc3cccc(c23)N1	·	-2.6%	18%	-9%
CCC(NC(=O)CCc1ccccc1)c1ccccc1 (stereo unspecified)	-18	-0.4%	-1%	6%
Cn1ncc(N=Cc2ccccc2O)c1C(=O)Nc1ccccc1	-5	-0.1%	-2%	15%
O=C(Nc1nc(-c2cccs2)cs1)c1ccc(S(=O)(=O)N2CCCC2)cc1	4	2.8%	?	15%
O=C1N/C(=C/c2cccs2)C(=O)N1Cc1ccc(Br)cc1	2	-3.1%	0%	1%
Cc1nc2ccccc2c(=O)n1/N=C/c1ccc2ccccc2c1O	3	?	11%	?
Cc1cc(C)c(S(=O)(=O)N2CCCCC2CCNC(=O)C(=O)NCCN2CCOCC2)c(C)c1 (stereo unspecified)	·	6.4%	·	17%
C=CCSc1nc2c(sc3nc(C)cc(C)c32)c(=O)[nH]1	-6	2.9%	-1%	9%
Cc1cc2c(cn1)C(CCC#N)(CCC#N)c1ccccc1-2	·	-0.1%	-2%	12%
COC(=O)c1ccc(C(=O)OC)c(NC(=O)COC(=O)c2ccccc2OC)c1	-1	0.8%	-2%	-5%
Cc1cc(NC(=O)c2ccc(C(C)(C)C)cc2)no1	·	4.9%	·	20%
COc1ccccc1N(CC(=O)Nc1cccc(C(F)(F)F)c1)S(C)(=O)=O	-7	-1.5%	1%	0%
COc1ccc(CN(C(=O)CNC(=O)c2ccco2)C(C(=O)NC2CCCC2)c2ccco2)cc1 (stereo unspecified)	-12	-1.6%	-2%	11%
O=C(CSCc1cnn(-c2ccccc2)c1-n1cccc1)N1CCN(Cc2ccccc2)CC1	4	-2.5%	0%	0%
Cc1cc(C)c(S(=O)(=O)Nc2cc(SCC(=O)O)c(O)c3ccccc23)cc1C	4	-3.6%	24%	-2%
COc1ccc(C2C(C(=O)c3sc(C)nc3C)=C(O)C(=O)N2CCN2CCOCC2)cc1 (stereo unspecified)	6	?	-3%	-19%
Cc1cc([N+](=O)[O-])ccc1P(=O)(O)c1ccc([N+](=O)[O-])cc1C	·	2.5%	·	-19%
O=C(c1ccc2c(c1)OCO2)C1CCCN(Cc2ccccc2OC(F)F)C1 (stereo unspecified)	·	-6.4%	2%	27%
Cn1cnc(C(=O)NCc2ccc(CNC(=O)OC(C)(C)C)cc2)c1C(=O)NCc1ccc(CNC(=O)OC(C)(C)C)cc1	·	-1.2%	·	-13%
Cc1cccc([C@@H]2[C@@H]3C(=O)N(C)C(=O)[C@@H]3[C@@H]3C(=O)Nc4ccccc4C(=O)N23)c1	·	-0.5%	-6%	9%
Cc1ccc(NC2=Nc3ccccc3CC2)cc1	1	-0.7%	-3%	3%
O=C(Cc1ccc(Cl)cc1)N1CCC2(CC1)NCCc1[nH]cnc12	·	2.7%	-1%	0%
Cc1ccc(-c2cc(C(=O)Nc3ccc(S(=O)(=O)Nc4onc(C)c4C)cc3)[nH]n2)c(O)c1	-2	-0.5%	-2%	3%
C#CCOc1ccc(C2C3=C(COC3=O)Nc3cc4c(cc32)OCO4)cc1OC (stereo unspecified)	4	-2.6%	19%	-5%
COc1ccc(CC(CN)c2ccccc2)cc1 (stereo unspecified)	·	-0.1%	10%	-6%
CCCn1c(Oc2ccccc2)nc2c1c(=O)n(C)c(=O)n2C	·	1.4%	5%	21%
Cc1ccc2c(CC(=O)OCn3nnc4ccccc4c3=O)coc2c1	0	-1.7%	-4%	28%
Cc1cccc2c(N=Nc3ccccc3)c(O)[nH]c12	·	?	-59%	-11%
NCCCC[C@@H]1NC(=O)c2cc([N+](=O)[O-])cc(I)c2SC[C@@H](C(N)=O)NC(=O)[C@H](CCC(N)=O)NC1=O	-9	0.1%	-1%	-7%
COC(=O)C1=NNC2(C)C(=O)N(c3ccc(C)cc3)C(=O)C12 (stereo unspecified)	-6	1.3%	0%	-21%
COCCN(CCOC)c1nc(S(=O)(=O)c2ccc(C)cc2)c(Cl)s1	0	2.9%	6%	15%
COC(=O)C1=C(C)Nc2c(c(=O)n(C)c(=O)n2C)C1c1ccc(C)cc1 (stereo unspecified)	-13	?	1%	22%
CC1CN(C(=O)c2cc(F)c(F)cc2Cl)CC(C)O1 (stereo unspecified)	·	3.1%	·	-3%
COc1ccc(Cc2c[nH]c(=O)[nH]c2=O)cc1	2	7.1%	0%	1%
COCCOC(=O)C(C#N)c1nc2ccccc2nc1N1CCN(Cc2ccccc2)CC1 (stereo unspecified)	-4	?	3%	?
COc1ccccc1N1C(=O)CC(c2ccccc2)CC1=O	·	0.2%	·	-5%
CCCCN(CC)Cc1ccc(CNC(=S)Nc2ccccc2F)o1	-2[21.1 µM]	0.9%	-5%	18%
Cc1cc(/C=N/NC(N)=S)c(C)n1-c1ccc(Cl)c(Cl)c1	3	-0.7%	?	1%
CCC(C)NC(=O)CSc1nnc(-c2ccc(OC)c(OC)c2)c(-c2ccc(OC)c(OC)c2)n1 (stereo unspecified)	·	3.0%	-2%	11%
CCOC(=O)N1CCN(Cc2nc(C3CC3)no2)CC1	8	-0.7%	-11%	26%
CC1(C)CC(=O)C2=C(C1)NC(Nc1nc3ccccc3o1)=NC2c1ccccn1 (stereo unspecified)	6	-0.5%	1%	?
Cc1noc(C)c1C(=O)N1CCCC(C(=O)c2cccc(C(F)(F)F)c2)C1 (stereo unspecified)	3	-3.6%	0%	-7%
O=C(O)C(Cc1ccccc1)N1Cc2ccccc2C1=O (stereo unspecified)	-4	-1.9%	-1%	-10%
COC(=O)C1CC(=O)c2sccc2C1 (stereo unspecified)	2	-5.0%	2%	-2%
COc1ccc(NC(=O)CSc2nc3ccccc3cc2Cc2ccccc2)cc1	-1	-0.1%	2%	1%
CCn1ccnc1CN(C)Cc1cn(-c2ccccc2)nc1-c1ccc(OC)cc1F	0	0.3%	-4%	-8%
Cc1ccc(S(=O)(=O)N2CCN(C)CC2)cc1[N+](=O)[O-]	1	-1.4%	0%	4%
COc1cc(C2Nc3c(F)cccc3C3C=CCC32)cc(Br)c1OC (stereo unspecified)	-3	-4.4%	-2%	-23%
O=S(=O)(NCCSc1nnnn1-c1ccccc1)c1cccs1	-9	1.6%	-32%	4%
CC(OC(=O)C1CC(=O)N(Cc2ccco2)C1)C(=O)Nc1ccc(F)cc1Cl (stereo unspecified)	·	-2.7%	·	-2%
COc1cccc(OC)c1C(=O)Nc1ccc2nc(C)c(C)nc2c1	·	0.2%	-31%	10%
COc1ccc(NC(=O)CSc2nc3nc(-c4cccs4)cc(C(F)(F)F)c3c(=O)[nH]2)c(OC)c1	-2	-3.4%	-2%	8%
O=C(Nc1cccnc1)c1cc2c(ccc3ccccc32)o1	10	7.6%	-51%	1%
CC(C)c1nc2oc3c(NCC4CCCO4)ncnc3c2c2c1CCC2 (stereo unspecified)	-2	-0.9%	-1%	-4%
NNC(=O)Cc1cn(-c2ncc(C(F)(F)F)cc2Cl)c2ccccc12	-10	-0.7%	11%	2%
C[C@@H]1CN([C@@H](C)CO)C(=O)c2cc(NC(=O)C3CC3)ccc2O[C@@H]1CN(C)Cc1ccc(Cl)c(Cl)c1	·	0.8%	·	17%
Cc1ccc(-n2c(C)cc(C=C3C(=O)N(C)C(=O)N(C)C3=O)c2C)cc1	·	-3.4%	·	-2%
O=[N+]([O-])c1cccc(N/N=C/c2ccc(N3CCOCC3)cc2)c1	·	-0.5%	-54%	-5%

Filtered by structure: the entries above with a nitro group on carbon
SMILES	GLA inh pH 4.5	Rango complex inh	miR-21 reporter	Rango dissoc inh
Cc1cc([N+](=O)[O-])ccc1P(=O)(O)c1ccc([N+](=O)[O-])cc1C	·	2.5%	·	-19%
NCCCC[C@@H]1NC(=O)c2cc([N+](=O)[O-])cc(I)c2SC[C@@H](C(N)=O)NC(=O)[C@H](CCC(N)=O)NC1=O	-9	0.1%	-1%	-7%
Cc1ccc(S(=O)(=O)N2CCN(C)CC2)cc1[N+](=O)[O-]	1	-1.4%	0%	4%
O=[N+]([O-])c1cccc(N/N=C/c2ccc(N3CCOCC3)cc2)c1	·	-0.5%	-54%	-5%

Next part:
SMILES	GLA inh pH 4.5	Rango complex inh	miR-21 reporter	Rango dissoc inh
O=C(CCNC(=O)c1ccc(Cl)cc1)Nc1ccc(Cl)cc1F	-2	0.1%	-3%	0%
CCc1nnc(NC(=O)CSc2nnc(CNc3cccc(C)c3)n2-c2ccccc2)s1	-19	0.6%	-1%	-10%
COc1ccc(CCNC(=O)c2nc(-c3cccs3)no2)cc1OC	0	-0.4%	7%	-5%
CC1CC(C)CN(CC(=O)Nc2ccc3c(c2)OCCO3)C1 (stereo unspecified)	1	3.5%	-54%	0%
COc1ccc2c(c1)cc1n2CCN2CCCN=C12	-1	0.0%	-5%	-6%
COc1ccc(-c2noc(COc3ccc4c(c3)OCO4)n2)cc1	-11	-0.7%	-5%	-6%
COc1ccc(CN(C)C(=O)c2ccc(NC(=O)CC3SC(N4CCCC4)=NC3=O)cc2)c(OC)c1OC (stereo unspecified)	·	-1.8%	·	-10%
COc1cccc(CNC(=O)Cc2csc(Nc3nc(=S)[nH]c4ccccc34)n2)c1	3	1.2%	-1%	-6%
CC(C)(C)c1cccc(/C=N/O)c1O	5	-0.1%	-3%	2%
O=C(CN1C(=O)c2cccc3cccc(c23)C1=O)NCCN1CCOCC1	-9	3.0%	1%	-3%
Cc1ccc(S(=O)(=O)N(C)C)cc1NC(=O)C1Cc2ccccc2CN1C(=O)c1ccco1 (stereo unspecified)	·	-1.5%	-4%	26%
O=C(O)CC(c1cccc(O)c1)N1Cc2ccccc2C1=O (stereo unspecified)	·	-1.2%	-4%	-6%
CCNC(=O)COC(=O)/C=C/c1c(C)nn(Cc2cccc(OC)c2)c1Cl	2	-0.2%	-3%	-8%
Cc1oc(C)c2c(=O)ccc3c(c12)OC(N)=C(C#N)C3c1ccc(F)cc1 (stereo unspecified)	-3	?	-5%	?
Cc1nc2ccccn2c1C(=O)NNC(=S)Nc1ccc(Cl)cc1	-10	-0.1%	-38%	0%
COc1cccc(N=Cc2ccc(O)cc2O)c1	2	-1.0%	-9%	0%
CC(=O)c1ccccc1NS(=O)(=O)c1ccccc1Cl	-10	-0.1%	1%	17%
Cc1ccccc1NC(=O)c1c(C)nn(-c2ccccc2)c1Cl	1	0.0%	-35%	6%
O=C(NC(=S)Nc1ccccc1)c1cc(-c2ccccc2)nc2ccccc12	-1	1.3%	-2%	15%
Cc1ccnc(NS(=O)(=O)c2ccc(NC(=O)c3ccc([N+](=O)[O-])s3)cc2)n1	5	6.5%	26%	-9%
COc1ccc2sc3c(=O)[nH]c4ccccc4c3c2c1	6	0.1%	13%	10%
NC(=O)C1CCN(S(=O)(=O)c2cccc(C(=O)O)c2)CC1	1	2.0%	-1%	-11%
O=C1c2ccccc2C(=O)C1(CO)c1ccccc1	-2	-2.1%	-43%	1%
Cc1cc(OCC(O)CN2CCCC2)ccc1C(C)C (stereo unspecified)	·	-4.0%	2%	-9%
CS(=O)(=O)N1CCN=C1SCc1cccc(F)c1	·	4.5%	-3%	13%
COc1ccccc1-n1c(C)nc2cc(C(=O)NCC3CCCO3)ccc21 (stereo unspecified)	·	-0.7%	-1%	26%
CN(C)C(=O)CCc1ccc2c3c([nH]c2c1)[C@]1(CCC2CCCC2)[C@@H](C(=O)N2CCOCC2)C[C@H](CC(=O)NCCc2ccccn2)C(=O)N1CC3	·	-3.9%	·	-4%
Cc1ccc(-n2nc3c(c2NC(=O)CC(C)C)CS(=O)C3)cc1 (stereo unspecified)	·	0.3%	-2%	-6%
